Vaccinia mCherry: vaccinia inhibition (mCherry reporter) | Potency, µM (titrated, usually from 36.5 µM), without a hit: top-dose activity change, negative = inhibition, most hits filed as inhibitors | Vaccinia virus mCherry reporter infection, fluorescence; about a quarter of the inactives have no number | 0.63% of 310,000 active; active = well fitted inhibition curve with a large enough effect; inconclusive = small, poorly fitted or top-dose-only effect; inactive = no such curve, though single readings can be large or run the other way; tested in A549 cells; further: nearly all actives have a fitted effect of over 35% in size; inactives centre near -10
Vaccinia Venus: inhibitors of vaccinia virus (Venus reporter); Vaccinia virus Venus reporter expression, fluorescence; Potency, µM (series often up to 36.5 µM), for inactives: at the top dose activity change, negative = inhibition, hits mostly inhibitors; 0.46% of 330,000 active; AID 720580; active means well fitted inhibition curve with a large enough effect; inconclusive means small, poorly fitted or top-dose-only effect; inactive means no such curve, though single readings can be large or run the other way; tested in A549 cells; further: nearly all actives have a fitted effect of over 30% in size; inactives centre near -10
An asterisk follows results filed as active; & = joins results of further samples; [ ] = dose if it differs, or a comment. On the % scale 0 is the no-effect control and ±100 the full control effect; potency means the concentration at half of the fitted maximal effect.

CC/C(C)=C1\SC(N2CCN(C(C)=O)CC2)=NC1=O was read as Vaccinia Venus -7%.
Screening Cc1ccc(C(=O)O)cc1NC(=O)CCc1ccccc1 returned Vaccinia mCherry inactive and Vaccinia Venus -10%.
`COc1ccc(-c2c3c(nc4sc(C(=O)Nc5cc(C)on5)c(N)c24)CCC3)cc1` gave Vaccinia mCherry -15% and Vaccinia Venus -5%.
`CCC(C)c1ccccc1NC(=O)c1[nH]c(C)c(C(C)=O)c1C` (configuration not stated) gave Vaccinia mCherry -28% and Vaccinia Venus -16%.
For COc1ccc(-c2sc3cc(OC)c(OC)cc3c2C#CC(C)(C)O)cc1 the results were Vaccinia mCherry -9% and Vaccinia Venus -27%.
Screening CN1CCN(C(=O)c2cc3nc(-c4ccc(F)cc4)cc(C(F)(F)F)n3n2)CC1 returned Vaccinia Venus -13%.
CC(C)c1ccc(C2CC(=O)Nc3cc4c(cc32)OCCO4)cc1 (configuration not stated) was read as Vaccinia mCherry -23% and Vaccinia Venus -20%.
For CCOC(=O)c1cc(-c2ccccc2)n(CC(=O)Nc2ccc(OC)cc2)c1C the results were Vaccinia mCherry -10% and Vaccinia Venus -15%.
COc1ccc(C(=O)Oc2cc(/C=N/NS(=O)(=O)c3ccc(C)cc3)ccc2OC)cc1 was read as Vaccinia mCherry 0% and Vaccinia Venus -2%.
For CCCC(=O)Nc1nnc(-c2ccc(Cl)s2)o1 the results were Vaccinia mCherry -1% and Vaccinia Venus -8%.
For CC(C(=O)NC1CCCCC1)N1C(=O)c2cccc3cccc1c23 (configuration not stated) the results were Vaccinia mCherry inactive and Vaccinia Venus -7%.
COc1cc(NS(=O)(=O)c2ccc(NC(=S)NC(=O)/C=C/c3ccco3)cc2)ncn1 was read as Vaccinia mCherry inactive and Vaccinia Venus 9%.
For CCOc1ccc(Br)cc1S(=O)(=O)NCc1ccc(S(N)(=O)=O)cc1 the results were Vaccinia mCherry -8% and Vaccinia Venus -2%.
O=C(CSc1nnc(-c2cccs2)o1)N1CCOCC1 was read as Vaccinia mCherry -7% and Vaccinia Venus -2%.
Screening CCc1nn(CC(=O)N2CCC3(CC2)OCCO3)c(=O)c2cccn12 returned Vaccinia mCherry inactive and Vaccinia Venus -15%.
O=C(C[C@@H]1C/C=C\C[C@H](Cc2ccc(F)cc2)C(=O)OC[C@@H]2CCCN2C1=O)N[C@H](CO)Cc1ccccc1 was read as Vaccinia mCherry -5% and Vaccinia Venus inconclusive.
Screening CCCc1cc(C(=O)N(C)CC(=O)Nc2ccc(OCC)c(OCC)c2)sc1C returned Vaccinia mCherry -17% and Vaccinia Venus -17%.
For CN(C)c1cc[n+](CC(=O)Nc2ccc(Cl)c([N+](=O)[O-])c2)cc1 the results were Vaccinia mCherry inconclusive and Vaccinia Venus -8%.
For CN(C)c1ccc(NC(=O)Cn2cc(S(=O)(=O)Cc3ccccc3Cl)c3ccccc32)cc1 the results were Vaccinia mCherry -28% and Vaccinia Venus -27%.
For CC1(Oc2cnc(Cl)c3ccccc23)CCN(Cc2ccc(OC(F)(F)F)cc2)C1 (configuration not stated) the results were Vaccinia mCherry 0% and Vaccinia Venus 9%.
For O=C(NCc1nc(-c2ccccc2)no1)c1ccc2c(c1)OCO2 the results were Vaccinia mCherry inactive and Vaccinia Venus -7%.
For COc1ccc(NC(=O)N(C)C[C@@H]2OCc3cnnn3CCCC(=O)N([C@@H](C)CO)C[C@H]2C)cc1 the results were Vaccinia mCherry inactive and Vaccinia Venus -8%.
CCc1ccc2nc(Nc3nc(COC)cc(=O)[nH]3)nc(C)c2c1 was read as Vaccinia mCherry -19% and Vaccinia Venus -13%.
Screening CC(C)(C)OC(=O)N/N=C/c1cc(N=Nc2ccccc2)ccc1O returned Vaccinia mCherry inconclusive and Vaccinia Venus -26%.
For CCOc1ccc(NC(=O)CCS(=O)(=O)c2ccc(Br)s2)cc1 the results were Vaccinia mCherry -2% and Vaccinia Venus 1%.
For Cc1oc2ncnc(N3CCCCC3)c2c1C(=O)N1CCN(c2cccc(Cl)c2)CC1 the results were Vaccinia mCherry -22% and Vaccinia Venus -11%.
Screening CCCNC(=O)C1(C)CCN(C(=O)c2cccc(OC(F)(F)F)c2)C1 (configuration not stated) returned Vaccinia mCherry inactive and Vaccinia Venus -6%.
Screening CCOc1c([N+](=O)[O-])cc2c(C)c(C(=O)N3CCN(C)CC3)oc2c1OCC returned Vaccinia mCherry -10% and Vaccinia Venus -7%.
Screening COc1ccc(-c2cn3cccnc3n2)cc1NC(=O)c1cc(OC)c(OC)c(OC)c1 returned Vaccinia mCherry -10% and Vaccinia Venus -5%.
Screening O=C(NCc1nc(-c2ccccc2)no1)c1cccs1 returned Vaccinia mCherry -14% and Vaccinia Venus -4%.

Ordered by SMILES length (smallest number first): some entries from above.
Screening CCCc1cc(C(=O)N(C)CC(=O)Nc2ccc(OCC)c(OCC)c2)sc1C returned Vaccinia mCherry -17% and Vaccinia Venus -17%.
For CC1(Oc2cnc(Cl)c3ccccc23)CCN(Cc2ccc(OC(F)(F)F)cc2)C1 (configuration not stated) the results were Vaccinia mCherry 0% and Vaccinia Venus 9%.
For CN(C)c1ccc(NC(=O)Cn2cc(S(=O)(=O)Cc3ccccc3Cl)c3ccccc32)cc1 the results were Vaccinia mCherry -28% and Vaccinia Venus -27%.
For COc1ccc(NC(=O)N(C)C[C@@H]2OCc3cnnn3CCCC(=O)N([C@@H](C)CO)C[C@H]2C)cc1 the results were Vaccinia mCherry inactive and Vaccinia Venus -8%.
O=C(C[C@@H]1C/C=C\C[C@H](Cc2ccc(F)cc2)C(=O)OC[C@@H]2CCCN2C1=O)N[C@H](CO)Cc1ccccc1 was read as Vaccinia mCherry -5% and Vaccinia Venus inconclusive.

Next entries
`CN1CCN(NS(=O)(=O)c2ccc(Cl)cc2)CC1` gave Vaccinia mCherry 7% and Vaccinia Venus 13%.
`O=c1ncn(C2CCCCC2)c(=O)[nH]1` gave Vaccinia mCherry inactive and Vaccinia Venus -14%.
COC(=O)C1=CN(c2ccc(F)cc2)C=C(C(=O)OC)C1c1ccc(O)cc1 was read as Vaccinia mCherry -14% and Vaccinia Venus -11%.
For Cc1ccc(-c2csc(C(O)c3cccc(Cl)c3)n2)cc1C (configuration not stated) the results were Vaccinia mCherry -5% and Vaccinia Venus 2%.
Screening CCN(CC(=O)Nc1cc(C)nn1-c1nc(C)cc(C)n1)Cc1ccccc1 returned Vaccinia mCherry -9% and Vaccinia Venus -27%.
Screening Cc1cccc(C(C)C)c1NC(=O)c1cccnc1 returned Vaccinia mCherry -4% and Vaccinia Venus 0%.
For COc1cccc(NC(=O)c2cccc(NC(=O)c3ccco3)c2)c1 the results were Vaccinia mCherry 0% and Vaccinia Venus -12%.
`COc1cc(/C=C/c2nc(C#N)c(N3CCN(C)CC3)o2)cc(OC)c1OC` gave Vaccinia mCherry inconclusive and Vaccinia Venus -22%.
For COc1cccc(CNc2ccc([N+](=O)[O-])c(NCC(=O)O)n2)c1 the results were Vaccinia mCherry -4% and Vaccinia Venus 8%.
For Cc1noc(C)c1S(=O)(=O)N1CCCC(C(=O)NCCc2ccc(Cl)cc2)C1 (configuration not stated) the results were Vaccinia mCherry -27% and Vaccinia Venus -16%.
For CNc1nc(N)c([N+](=O)[O-])c(NC2CCCCC2)n1 the results were Vaccinia mCherry inactive and Vaccinia Venus -6%.
`O=C(Cn1c(=O)ccc2cc(S(=O)(=O)N3CCCC3)ccc21)Nc1ccccc1` gave Vaccinia mCherry 12% and Vaccinia Venus 6%.
Screening Cc1ccccc1N(CC(=O)NCC1CCCO1)C(=O)CCC(=O)Nc1nccs1 (configuration not stated) returned Vaccinia mCherry -1% and Vaccinia Venus 2%.
Screening COc1ccc(N(CC(=O)N2CCc3ccccc3C2)S(C)(=O)=O)cc1 returned Vaccinia mCherry -16% and Vaccinia Venus -10%.
For Cc1cc(NC(=O)C(C)(C)C)cc(-c2nc3ncccc3o2)c1O the results were Vaccinia mCherry 0% and Vaccinia Venus 25%.
`O=c1oc(-c2ccc(Cl)c(Cl)c2)nn1-c1ccc(C(F)(F)F)cn1` gave Vaccinia mCherry inactive and Vaccinia Venus 0%.
COc1ccccc1NC(=O)CSc1nnc(CNC(=O)COc2ccc(Cl)cc2)o1 was read as Vaccinia mCherry -11% and Vaccinia Venus -26%.
Screening CCC(C)(C)NC(=O)CN(C(=O)c1snc(C(N)=O)c1N)c1ccc(OC)c(OC)c1 returned Vaccinia mCherry inactive and Vaccinia Venus -4%.
`O=S(=O)(NCc1ccccc1Br)c1ccccc1Br` gave Vaccinia mCherry -20% and Vaccinia Venus -12%&-10%.
Screening COCCNC(=O)CCCn1c(SCC(=O)Nc2ccc(F)cc2)nc2c(sc3ccccc32)c1=O returned Vaccinia mCherry 10% and Vaccinia Venus 6%.
Screening CN1CCc2c(sc3c2c(=O)n(-c2ccccc2)c2nnc(SCc4ccc(Cl)cc4)n32)C1 returned Vaccinia Venus inconclusive.
`Cc1ccc(C(=O)CSc2nnc(-c3ccccc3)o2)cc1` gave Vaccinia mCherry inactive and Vaccinia Venus -15%.
For COC(=O)c1sccc1NC(=O)CC1C(=O)NCCN1C(=O)Nc1cc(Cl)ccc1OC (configuration not stated) the results were Vaccinia mCherry -8% and Vaccinia Venus 10%.
`O=C(OCc1cn([C@H]2CN(C(=O)C3CCCCC3)[C@@H](c3ccc(Cl)cc3)C[C@@H]2O)nn1)c1ccccc1` gave Vaccinia mCherry inactive and Vaccinia Venus inconclusive.
O=C(CSc1nc2nccnc2c(=O)n1CCc1c[nH]c2ccccc12)Nc1ccccc1F was read as Vaccinia mCherry -15% and Vaccinia Venus -2%.
For CC(C)CNC(=O)C1=CC(c2ccc3c(c2)OCO3)=NS(=O)(=O)N1C the results were Vaccinia mCherry 3% and Vaccinia Venus 2%.
Screening O=C(CN1CCCCCC1)Nc1ccc(S(=O)(=O)N2CCOCC2)cc1 returned Vaccinia mCherry 5% and Vaccinia Venus -9%.
COc1ccc2ccccc2c1CN1CCCC(n2cc(C(=O)N3CCCC3)nn2)C1 (configuration not stated) was read as Vaccinia mCherry -4% and Vaccinia Venus -1%.
`Cc1cc(Br)cn2c(Cc3ccccc3C(F)(F)F)c(-c3cccc(Br)c3)nc12` gave Vaccinia mCherry 9% and Vaccinia Venus 3%.
For COc1ccc(-c2cn3c(n2)sc2cc(C(=O)Nc4cc(OC)cc(OC)c4)ccc23)cc1 the results were Vaccinia mCherry -20% and Vaccinia Venus -14%.
CCCNC(=O)C(Cc1ccc(I)cc1)NC(=O)c1ccc2ccccc2n1 (configuration not stated) was read as Vaccinia mCherry -6% and Vaccinia Venus inconclusive.
Cn1c(SCc2ccc(C(F)(F)F)cc2)nc2c([nH]c3ccccc32)c1=O was read as Vaccinia mCherry -24% and Vaccinia Venus -13%.
Screening O=C(c1cn(Cc2ccccc2)nc1-c1ccc(Cl)cc1)N1CCN(c2ccccn2)CC1 returned Vaccinia mCherry -12% and Vaccinia Venus 1%.
Screening CCCc1c(O)c2ccccc2n(-c2ccccc2)c1=O returned Vaccinia Venus -7%.
CCOc1ccc(N2CC(C(=O)NC3CCCC3)CC2=O)cc1 (configuration not stated) was read as Vaccinia mCherry -10% and Vaccinia Venus -1%.
For COc1ccc(NC(=O)CCC(=O)Nc2ccc3nc(N4CCOCC4)cc(C)c3c2)c(OC)c1 the results were Vaccinia mCherry inactive and Vaccinia Venus -3%.
`O=C(OCCN1C(=O)c2ccccc2C1=O)c1ccccc1` gave Vaccinia mCherry inactive and Vaccinia Venus -17%.
For CN1C(=O)C(c2ccccc2)C(=O)N(C)C1=O the results were Vaccinia mCherry inactive[7.34 µM] and Vaccinia Venus -6%[7.34 µM].
`O=C(O)c1ccc(S(=O)(=O)NCC2CCCCC2)cc1` gave Vaccinia mCherry -2% and Vaccinia Venus -14%.
CCCCc1ccc(NC(=O)c2cnccn2)cc1 was read as Vaccinia mCherry inconclusive and Vaccinia Venus -9%.
Screening CCOC(=O)N1CCN(C(=O)C2CCCN(c3ncnc4c3nc3n4CCCCC3)C2)CC1 (configuration not stated) returned Vaccinia mCherry inactive and Vaccinia Venus -8%.
Screening O=S(=O)(Cc1ccccc1)N1CCN(Cc2c(F)cccc2Cl)CC1 returned Vaccinia mCherry -7% and Vaccinia Venus -8%.
`Cc1ccccc1C(=O)N1CCC(c2nc(-c3ccc(S(=O)(=O)N4CCCC4)cc3)no2)CC1` gave Vaccinia mCherry inactive and Vaccinia Venus -14%.
For O=[N+]([O-])c1cccc2cn[nH]c12 the results were Vaccinia mCherry -13% and Vaccinia Venus -12%&-6%.
Screening Cc1cc(/C=N/NC(=O)c2cccc(N(C)C)c2)c(C)n1-c1cc(C(=O)O)cc(C(=O)O)c1 returned Vaccinia mCherry inactive and Vaccinia Venus -8%.
COc1cc(C(=O)OCC(=O)Nc2ccc(C(C)=O)cc2)ccc1OCC(=O)N1CCOCC1 was read as Vaccinia mCherry -6% and Vaccinia Venus 1%.
CCOC(=O)c1c(C)oc2ccc(OCC(N)=O)cc12 was read as Vaccinia mCherry -15% and Vaccinia Venus -12%.
O=C(COc1cc2oc(=O)c3c(c2cc1Cl)CCC3)N1C[C@H]2C[C@@H](C1)c1cccc(=O)n1C2 was read as Vaccinia mCherry -5% and Vaccinia Venus -3%.
CCOc1ncccc1C(=O)Nc1c(C)n(C)n(-c2ccccc2)c1=O was read as Vaccinia mCherry 14% and Vaccinia Venus 5%.
`Cc1nc(N2CCOCC2)c2c(C(=O)N3CCN(c4cccc(C(F)(F)F)c4)CC3)c(C)oc2n1` gave Vaccinia mCherry 0% and Vaccinia Venus -19%.
`O=C(Nc1ccccn1)c1cccc(S(=O)(=O)N2CCc3ccccc3C2)c1` gave Vaccinia mCherry -1% and Vaccinia Venus -13%.
`CCCNC(=O)Nc1cc(C(=O)NCc2cccc(OCC)c2)ccc1N1CCCC1` gave Vaccinia mCherry -4% and Vaccinia Venus -6%.

Assay outcomes as filed in PubChem.

This is a random part of the collection; overall some 0.87% were active at least once.
